BJeLR lethal = kills HRASV12-expressing BJeLR cells; inhibition, % (test concentration not listed); hit rate 0.17% among 300,000; BJeLR (HRASV12) viability, CellTiter-Glo ATP luminescence, 48 h; reference of the scale not given here;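 active = replicate mean above 50%; inconclusive = above 50% but judged a plate artefact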;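 note: 50 nL library stock added to about 25 µL; numbers are from one replicate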
PrP 5UTR inh = inhibition of PrP 5' UTR reporter expression | cell-based PrP 5' UTR mRNA reporter, plate reader | inhibition, % (test concentration not listed) | hit rate 0.35% among 340,000;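 active = every replicate at 50% or more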;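 note: 0 = median of the neutral control wells; tested in H4 reporter cells; numbers are from one replicate; inactives centre near -14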
Autofluor counter = compound fluorescence in toxin protease inhibitor counterscreen. compound autofluorescence counterscreen, microsphere flow cytometry; stronger effect = higher value. fluorescence intensity (no concentration beside the values). hit rate 3.1% among 360,000;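 active = at least 3 SD above the mean of all compounds, about 16000 in these data; inconclusive = too few beads counted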;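 note: 100 nL of 1 mM stock went into each well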
Mtb hypoxia rep = inhibitors of hypoxia-regulated fluorescent reporter in Mycobacterium tuberculosis; M. tuberculosis hypoxia-regulated fluorescent reporter, fluorescence; fluorescence inhibition, % (no concentration beside the values); hit rate 0.1% among 300,000;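 active = 35 to 45% if threefold the growth effect, above 45% if 1.5-fold the growth effect; inactive = the rest, general growth blockers included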;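 note: wells of about 50 µL received 100 nL stock; 0% = vehicle wells and 100% = reference inhibitor wells; whole bacteria with a GFP reporter of the hypoxia response; strong numbers were not always called active; many hits fall short of the cut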
ugtP null kill = growth inhibition of S. aureus ugtP deletion strain. hit rate 0.54% among 330,000. growth inhibition, % (test concentration not listed). S. aureus RN4220 ugtP deletion, OD600 growth, 16 h; some inactives read as strong as hits. AID 1259309;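 active = z-score under -3 and OD600 up to 0.15 on both plates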;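 note: plate controls were untreated wells for no effect and antibiotic for full effect; wells of about 80 µL received 100 nL stock; the first replicate is given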
RN4220 kill = S. aureus RN4220 growth inhibition. OD600, 16 h. inhibition, % (test concentration not listed). hit rate 0.33% among 330,000;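 active = z-score of -3 or lower and OD600 up to 0.18 on both plates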;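 note: plate controls were untreated cells for no effect and reference antibiotic for full effect; stock transfer was 100 nL into about 80 µL; one replicate is shown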
Mtb hypoxia rep growth = recorded beside Mtb hypoxia rep, whose call it bears; growth inhibition, %; measured here: M. tuberculosis growth (absorbance);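 0% = vehicle and 100% = reference antibiotic; read after six days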
Starred values were filed as active, the others as inactive; ? = inconclusive; . = no result given.

SMILES	BJeLR lethal	PrP 5UTR inh	Autofluor counter	Mtb hypoxia rep	Mtb hypoxia rep growth	ugtP null kill	RN4220 kill
O=C(NN=Cc1coc2ccccc2c1=O)c1cc(Br)c(O)c(Br)c1	.	.	.	-6	3	-4	1.6
O=C(c1ccccc1)C1Oc2ccccc2C2CC(c3cccs3)=NN12 (centres undefined)	-1	-13	6124	3	14	-5	-3.7
COc1ccc(/C=C2\Oc3cc(OC(=O)N4CCOCC4)ccc3C2=O)c(OC)c1	1	-16	.	8	-12	7	-3.5
COc1cc(OC)cc(C(=O)NC(C)CNc2ccc(Cl)cc2[N+](=O)[O-])c1 (centres undefined)	2	-8	3963	-13	0	8	7.3
Cc1ccc(CC2CC(=O)N(c3ccc(Cl)cn3)C2=O)cc1 (centres undefined)	-10	-17	2532	2	7	5	-7.6
Cc1ccccc1Cn1c(C(C)O)nc2ccccc21 (centres undefined)	-6	-14	3215	25	-18	-8	-14
C=CCSC1=NC(=Cc2ccc3c(c2)OCO3)C(=O)S1	.	.	.	5	1	16	16
COc1ccc(N(CC(=O)N2CCN(c3ccccc3)CC2)S(=O)(=O)c2c(C)noc2C)cc1	5	-13	5532	6	-2	-3	-1.9
O=S(=O)(NC(=NCc1ccccc1)c1ccccc1)c1ccc(Br)cc1	-2	-5	6423	2	-1	2	-3.8
CCOc1ccc(N=Nc2cc(C(C)C)ccc2O)cc1	-8	-12	1950	8	6	79	-5.9
O=C(COc1ccc2c3c(c(=O)oc2c1)CCC3)N1CCCC1	-7	-12	5829	-13	1	-6	1.2
CN(CCCS(=O)(=O)[O-])c1ccc(/C=C/c2ccc3ccccc3[n+]2C)cc1	9	-8	3637	14	4	2	1.8
CC(NC(=O)c1ccc2c(c1)S(=O)(=O)N=C1CCCCCN12)c1ccc(S(N)(=O)=O)cc1 (centres undefined)	2	-31	5505	4	-9	3	-0.4
N#CCC(=O)NN=Cc1coc2ccccc2c1=O	.	.	.	-1	-3	1	3.4
Cc1nc2ccccc2c(=O)n1NC(=O)c1ccc(Cl)c(Cl)c1	1	-26	3144	13	0	6	4.9
Cc1cc(C)n2c(SCC(=O)NC3CCCCC3)nnc2n1	-6	-17	4113	1	2	-6	-5.1
CN(CC(=O)Nc1cccc(S(=O)(=O)NC2=NCCC2)c1)Cc1cccc(F)c1	.	-6	4193	-6	-9	-3	-4.5
CC(C)CNC(=S)N(CCN(C)C)Cc1cc2cc3c(cc2[nH]c1=O)OCCO3	-7	-41	4181	0	-14	2	1.6
O=C(Nc1ccccc1Cl)c1cc(S(=O)(=O)N2CCCCC2)ccc1N1CCOCC1	3	0	.	-4	-1	-1	-2.8
O=C(NCC1CCOCC1)c1ccc(OC2CCN(Cc3ccccn3)CC2)cc1	-2	-15	2526	7	-1	10	1.3
O=C(Nc1nccs1)c1ccc(-c2ccccc2Cl)o1	-2	-61	11394	6	-1	-12	22
CC1CCC2(CC1)NC(=O)c1ccccc1O2 (centres undefined)	-6	-6	2595	.	.	-3	-0.9
CC(C)c1ccc(OCC(=O)Nc2ccc3oc(=O)ccc3c2)cc1	4	-5	6376	-3	4	-6	0.7
CC1CCCN(C(=O)CSc2ncccn2)C1 (centres undefined)	-1	-19	2946	12	-1	5	-0.5
CC1CC(C)CN(S(=O)(=O)N2CCCC(C(=O)NCc3ccccc3Cl)C2)C1 (centres undefined)	1	9	4372	-3	-6	4	1.9

(next part)
SMILES	BJeLR lethal	PrP 5UTR inh	Autofluor counter	Mtb hypoxia rep	Mtb hypoxia rep growth	ugtP null kill	RN4220 kill
CCCc1[nH]nc2c1C(CCC)C(C#N)=C(N)O2 (centres undefined)	-3	-10	4163	4	1	3	3.0
Cc1ccc(OCc2ccc([N+](=O)[O-])cc2)c([N+](=O)[O-])n1	0	-42	5998	10	3	8	4.0
Cc1ccc(NC(=O)CC2OC(=O)c3ccccc32)cc1S(=O)(=O)N1CCCCCC1 (centres undefined)	.	-15	3065	4	-1	0	2.8
CC(C(=O)NCCc1c[nH]c2ccccc12)C1C[C@]1(C)C(NC(=O)OCc1ccccc1)c1ccccc1 (some centres undefined)	.	.	.	-3	8	-3	-2.0
CCCCNC(=O)NS(=O)(=O)c1ccc(C)cc1	10	-25	5513	.	.	.	.
O=C(N1CCOCC1)N1c2ccccc2Sc2ccccc21	-3	-16	9190	16	15	7	10
CCS(=O)(=O)N1CCN(c2ncnc3sc(C)c(C)c23)CC1	0	2	4778	9	-2	1	-0.7
COc1ccc(C)cc1NC(=O)COC(=O)c1ccc([N+](=O)[O-])o1	5	-36	4616	0	8	0	6.9
CC(C)(C)c1nnc(NC(=O)Cc2ccc(Br)cc2)s1	5	-12	1946	0	2	-8	0.3
CCCCN(C(=O)c1ccc2c(c1)S(=O)(=O)N=C1CCCCCN12)c1c(N)n(CC(C)C)c(=O)[nH]c1=O	.	-14	3877	3	-1	5	3.2
CCCCn1c(N)c(N(CC)C(=O)c2ccccc2F)c(=O)[nH]c1=O	-6	-23	3685	15	2	1	5.9
CCOc1ccc(NC(=O)CCC(=O)O)cc1	5	-15	8590	3	5	-3	2.3
CC(OC(=O)CN1C(=O)C2CCCCC2C1=O)C(=O)Nc1ncc(Cl)cc1Cl (centres undefined)	6	-17	23522*	2	3	1	0.2
COCCNC(=O)C(=O)NN=C(C)CC(=O)Nc1cccc(C(F)(F)F)c1	.	.	.	11	1	2	5.8
CCOC(=O)N1CCN(c2ncnc3scc(-c4ccc(Cl)cc4)c23)CC1	4	6	3198	-15	8	-1	0.4
CN(C)c1ccc(C=NN(CCC(=O)NC(C)(C)C)C2=NS(=O)(=O)c3ccccc32)cc1	.	.	.	-3	-2	5	3.0
Cc1nc([N+](=O)[O-])c(SCC(N)=O)n1Cc1ccccc1	-2	-9	6391	17	10	-3	2.7
CCCCN(C)S(=O)(=O)c1ccc(C(=O)Nc2nnc(-c3cccs3)o2)cc1	10	.	.	.	.	97*	104*
CC(C)(C)C1CCc2c(sc3nc(SCC(N)=O)nc(N)c23)C1 (centres undefined)	-11	67*	2681	9	9	8	4.6
O=C(NCCCN1CCCC1=O)c1ccc2c(=O)n(Cc3ccco3)c(=S)[nH]c2c1	7	-13	4428	.	.	3	1.2
CCOc1ccc(-n2c(-c3ccco3)nc3c(cnn3-c3ccc(C)cc3)c2=O)cc1	7	-22	6565	-2	2	2	46
Nc1ccc(CCS(N)(=O)=O)cc1	-3	-11	9778	4	4	1	1.6
Cc1ccc(NC(=O)CNc2cccc(S(=O)(=O)N3CCCC3)c2)cc1F	0	-16	5099	-4	4	-1	1.0
CCOC(=O)C1C2COc3ccc(C)cc3C2N2C(=O)c3cc(F)ccc3NC(=O)[C@@]12C (some centres undefined)	.	.	.	16	3	7	5.6
Cc1nn2c(=O)cc(COC(=O)c3c(F)cccc3Cl)nc2s1	.	-86	2932	-3	0	5	2.2

Reformatted: entries from further up.
Each structure is followed by: BJeLR lethal | PrP 5UTR inh | Autofluor counter | Mtb hypoxia rep | Mtb hypoxia rep growth | ugtP null kill | RN4220 kill
> Cc1ccc(OCc2ccc([N+](=O)[O-])cc2)c([N+](=O)[O-])n1
    0 | -42 | 5998 | 10 | 3 | 8 | 4.0
> Cc1ccc(NC(=O)CC2OC(=O)c3ccccc32)cc1S(=O)(=O)N1CCCCCC1 (centres undefined)
    . | -15 | 3065 | 4 | -1 | 0 | 2.8
> CC(C(=O)NCCc1c[nH]c2ccccc12)C1C[C@]1(C)C(NC(=O)OCc1ccccc1)c1ccccc1 (some centres undefined)
    . | . | . | -3 | 8 | -3 | -2.0
> CCCCNC(=O)NS(=O)(=O)c1ccc(C)cc1
    10 | -25 | 5513 | . | . | . | .
> O=C(N1CCOCC1)N1c2ccccc2Sc2ccccc21
    -3 | -16 | 9190 | 16 | 15 | 7 | 10
> CCS(=O)(=O)N1CCN(c2ncnc3sc(C)c(C)c23)CC1
    0 | 2 | 4778 | 9 | -2 | 1 | -0.7
> COc1ccc(C)cc1NC(=O)COC(=O)c1ccc([N+](=O)[O-])o1
    5 | -36 | 4616 | 0 | 8 | 0 | 6.9
> CC(C)(C)c1nnc(NC(=O)Cc2ccc(Br)cc2)s1
    5 | -12 | 1946 | 0 | 2 | -8 | 0.3
> CCCCN(C(=O)c1ccc2c(c1)S(=O)(=O)N=C1CCCCCN12)c1c(N)n(CC(C)C)c(=O)[nH]c1=O
    . | -14 | 3877 | 3 | -1 | 5 | 3.2
> CCCCn1c(N)c(N(CC)C(=O)c2ccccc2F)c(=O)[nH]c1=O
    -6 | -23 | 3685 | 15 | 2 | 1 | 5.9
> CCOc1ccc(NC(=O)CCC(=O)O)cc1
    5 | -15 | 8590 | 3 | 5 | -3 | 2.3
> CC(OC(=O)CN1C(=O)C2CCCCC2C1=O)C(=O)Nc1ncc(Cl)cc1Cl (centres undefined)
    6 | -17 | 23522* | 2 | 3 | 1 | 0.2
> COCCNC(=O)C(=O)NN=C(C)CC(=O)Nc1cccc(C(F)(F)F)c1
    . | . | . | 11 | 1 | 2 | 5.8
> CCOC(=O)N1CCN(c2ncnc3scc(-c4ccc(Cl)cc4)c23)CC1
    4 | 6 | 3198 | -15 | 8 | -1 | 0.4
> CN(C)c1ccc(C=NN(CCC(=O)NC(C)(C)C)C2=NS(=O)(=O)c3ccccc32)cc1
    . | . | . | -3 | -2 | 5 | 3.0
> Cc1nc([N+](=O)[O-])c(SCC(N)=O)n1Cc1ccccc1
    -2 | -9 | 6391 | 17 | 10 | -3 | 2.7
> CCCCN(C)S(=O)(=O)c1ccc(C(=O)Nc2nnc(-c3cccs3)o2)cc1
    10 | . | . | . | . | 97* | 104*
> CC(C)(C)C1CCc2c(sc3nc(SCC(N)=O)nc(N)c23)C1 (centres undefined)
    -11 | 67* | 2681 | 9 | 9 | 8 | 4.6

(next part)
SMILES	BJeLR lethal	PrP 5UTR inh	Autofluor counter	Mtb hypoxia rep	Mtb hypoxia rep growth	ugtP null kill	RN4220 kill
CN1CCN(c2nc(-c3ccc(Cl)cc3Cl)nc3ccccc23)CC1	-5	-11	4048	5	13	3	-0.8
Cc1ccc(C)c(NC(=O)CSc2nnc(-c3ccncc3)o2)c1	-3	.	?	5	-9	7	2.0
CS(=O)(=O)N(CC(=O)NC1CC2CCC1C2)c1cccc(C(F)(F)F)c1 (centres undefined)	0	-16	3165	.	.	5	1.2
CC(C)CCN1CCN(Cc2cccc(-n3cccn3)c2)CC1CCO (centres undefined)	-4	.	4653	-1	-9	-3	-1.2
CCOc1ccc(C=NNc2ccc(S(=O)(=O)Nc3ccccc3C(=O)O)cc2[N+](=O)[O-])cc1OC	.	-14	4155	19	19	4	6.0
Nc1scc2c(C(=O)N/N=C/c3ccc(Cl)cc3)nn(-c3ccccc3)c(=O)c12	-6	-20	8722	.	.	.	.
CN(CC(=O)Nc1ccccc1Br)C(=O)c1ccccc1-c1nc2ccccc2s1	5	-4	5270	5	-7	3	12
CCOCCCN(C(=O)CNC(=O)c1ccco1)C(C(=O)NC1CCCC1)c1ccccc1C (centres undefined)	-4	-11	3745	5	7	10	6.4
COc1ccc(N/C(=C/[N+](=O)[O-])SC)cc1	6	-11	2066	23	12	1	5.1
CC(C)Cn1c2c(c(=O)[nH]c1=O)C(NS(=O)(=O)c1ccc(Cl)cc1)(C(F)(F)F)C(=O)N2 (centres undefined)	-8	-16	4643	2	0	2	8.7
CCC1(C)NC(C(=O)O)Cc2c1[nH]c1ccccc21 (centres undefined)	-7	-30	4134	5	5	7	8.3
COc1cccc(NC(=S)N(CCc2c(C)[nH]c3ccccc23)Cc2cccs2)c1	.	-24	6093	5	2	3	5.4
Cc1cc2n(n1)C(c1ccccc1Cl)Nc1ccccc1-2 (centres undefined)	1	-4	11131	-16	2	-16	-2.1
Cc1cccc(NCC(=O)N/N=C/c2ccc(Br)cc2)c1	2	-9	3036	.	.	.	.
COc1ccc(NC(=O)CSc2nnc(-c3cccc(O)c3)o2)cc1	-10	-57	6017	2	9	3	1.2
Cc1cccc(OCc2nnc(NC(=O)Cc3cccs3)s2)c1	-4	-25	16333*	0	-2	-6	-1.6

Source: PubChem BioAssay (several laboratories)
